CBX7 AlphaScr = blocks human CBX7 binding to H3K27me3 peptide; 66,000 compounds, 1.1% hits; O95931; AlphaScreen His6-CBX7 / biotin-H3K27me3 peptide binding; stronger effect = lower value; AID 1224903; normalised signal (fraction of DMSO) (test concentration not listed); in the data active = normalised signal below about 0.5;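 note: 100 nL library stock added to about 20 µL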
Target sequence (O95931 whole entry, looked up): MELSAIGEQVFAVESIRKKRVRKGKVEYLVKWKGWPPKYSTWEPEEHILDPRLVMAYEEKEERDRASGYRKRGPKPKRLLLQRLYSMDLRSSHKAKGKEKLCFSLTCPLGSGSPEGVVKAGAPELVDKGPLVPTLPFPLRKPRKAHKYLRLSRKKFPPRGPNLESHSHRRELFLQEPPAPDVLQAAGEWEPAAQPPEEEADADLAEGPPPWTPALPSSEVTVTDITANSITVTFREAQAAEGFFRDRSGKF
CBX7 AlphaScr z-score = second read-out of CBX7 AlphaScr, no call of its own (marks repeat the call); z-score; measured here: z-score of CBX7 signal; some inactives read as strong as hits; reference of the scale not given here;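 same signal on another scale; lower means less binding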
Starred values were filed as active, the others as inactive.

Compound	CBX7 AlphaScr	CBX7 AlphaScr z-score
CCCCSc1nnc2c(n1)OC(C1CC=C(C)CC1C)Nc1ccccc1-2 (centres undefined)	0.889	-1.2
Cc1ccc(C2CCN(C(=O)Nc3ccc(Cl)cc3)C2)cc1 (centres undefined)	0.996	-0.0256
Cc1ccccc1-c1nc(CN2CCC(C(=O)NCCN3CCOCC3)CC2)c(C)o1	1.05	2.11
Clc1ccc(-n2ncnc2-c2ccccc2)cc1	0.942	-1.61
Cc1nc(Nc2ncc3c(n2)CC(C)(C)CC3=O)nc2ccccc12	1.02	0.453
Cc1nc(Nc2nc(C)c3ccccc3n2)[nH]c(=O)c1C	1.09	1.02
O=C(Cn1nc(-c2ccc(Cl)cc2)ccc1=O)NCCCN1CCC(Cc2ccccc2)CC1	1.01	0.265
Cc1ccc(NC(=O)Cc2c(C(=O)O)[nH]c3ccc(Cl)cc23)c(Cl)c1	1.1	0.914
Ic1ccc(Nc2nc3nonc3n3nnnc23)cc1	0.881	-1.41
O=C(NCc1ccc(F)cc1)C1CCN(c2nc3ccccc3n2Cc2ccc(F)cc2)CC1	1.02	0.718
COc1cc2c(cc1OC)C(C(=O)Nc1ccccc1F)C(c1ccccc1F)N(C)C2=O (centres undefined)	0.952	-0.863
COCCn1cc(C(=O)NCc2ccccn2)c2c3ccccc3n(C)c2c1=O	1.06	1.66

(listing goes on)
Compound	CBX7 AlphaScr	CBX7 AlphaScr z-score
O=C(CC1C(=O)N(c2ccccc2)C(=O)N1Cc1ccc(F)cc1)Nc1ccc(Cl)cc1 (centres undefined)	1	0.0886
Cc1ccc(CN2C(=O)Cn3cccc3C2C(=O)NC2CCCC2)cc1 (centres undefined)	1.01	0.133
O=C1c2ccccc2C(=O)N1CCCc1nc2ccccc2c(=O)n1CCCn1ccnc1	1.01	0.0959
CCCNC(=O)Cn1c2c(c(-c3ccccc3Cl)cc1=O)CCC2	1.09	0.977
Cc1cccc(NS(=O)(=O)c2ccc3c(c2)CCC(=O)N3)c1	0.968	-0.716
CCN(CC)S(=O)(=O)c1ccc2c(c1)N(CC(=O)NC(C)CCc1ccccc1)C(=O)CO2 (centres undefined)	0.96	-1.15
O=C(CCCN1C(=O)c2cccnc2C1=O)Nc1ccc(OC(F)(F)F)cc1	1.1	0.209
CCCOc1ccc(C2C(=O)N(C3CCCCC3)CC(=O)N2C2CC2)cc1OC (centres undefined)	1.04	0.0416
CCCCOc1ccc2nnc(-c3ccc(Br)cc3)n2n1	1.05	1.76
O=C(Nc1ccc(-c2nc3ccccc3[nH]2)cc1)c1ccc(-c2ccccc2)cc1	1.06	1.2
CCc1ccc2oc(-c3cccc(NC(=O)c4ccc(C)cc4)c3)nc2c1	1.07	1.35
O=C(Cn1nc(-c2ccccc2)ccc1=O)NCCN1CCC(Cc2ccccc2)CC1	1.05	1.26

Further entries
Compound	CBX7 AlphaScr	CBX7 AlphaScr z-score
COc1ccc(-c2nn(C)c3sc(C(=O)N4CCN(c5cccc(Cl)c5)CC4)cc23)cc1OC	0.972	-0.776
O=C(NCCCN1CCc2ccccc2C1)c1cc2c(s1)-c1ccccc1OC2	1.2	4.92
O=C(CCN1C(=O)COc2ccccc21)N1CCN(c2ccccn2)CC1	0.909	-1.05
CCCCNC(=O)C1CCC(=O)N1CCc1ccccc1 (centres undefined)	1.05	0.876
COc1ccc(CNC(=O)Cc2ccc(NC3=NC4CS(=O)(=O)CC4S3)cc2)cc1 (centres undefined)	0.815	-2.02
Cc1c(C(=O)NC(C)C)oc2ccc(S(=O)(=O)N3CCCCCC3)cc12	1	0.087
Cc1ccc(NC(=O)c2cnn(-c3ccccc3)c2C2CCNCC2)cc1	1.08	2.14
CCC(C)NC(=O)CN1C(=O)CSc2ccc(S(=O)(=O)N3CCOCC3)cc21 (centres undefined)	1.04	0.514
CCN(CC)CCNC(=O)CCc1c(C)nc2c(-c3ccc(F)cc3)c(C)nn2c1C	1.06	1.51
Cc1cc(C)n2c(Br)c(CSc3nc4ccccc4[nH]3)nc2n1	0.962	-0.834
COc1ccc(NC2c3ccccc3C(=O)N2c2ccc(Cl)cc2)cc1OC (centres undefined)	0.537	-12.5
CCN1C(=O)CSc2ccc(C(=O)NC(C)C)cc21	1.02	0.511

More structures
Compound	CBX7 AlphaScr	CBX7 AlphaScr z-score
Cc1oc(-c2ccccc2F)nc1CN1CCC(C(=O)NCc2ccc(Cl)cc2)CC1	1.16	1.88
Cc1cc(C)c2nc3s/c(=C/c4cccc(Cl)c4Cl)c(=O)n3c2c1	0.946	-0.679
CN(C)CCNc1oc(-c2ccccc2F)nc1C#N	1.12	1.34
CCOC(=O)c1cccc(C(=O)Nc2nc3ccc(OCC)cc3s2)n1	1.05	0.771
O=C(Nc1ccc(Cl)cn1)C1c2ccccc2C(=O)N2CCc3ccccc3C12 (centres undefined)	0.959	-0.0564
Cc1ccc(-c2cn(-c3ccccc3)c(SCC(=O)NC3CCCCC3)n2)cc1	0.855	-4.78
Cc1ccc(CCNC(=O)c2nc(-c3ccccc3F)oc2C)cc1	0.995	-0.208
CC(C)CCNC(=O)CN1C(=O)CC(C)(C)Sc2ccccc21	1.05	1.43
Cc1ccc(S(=O)(=O)Nc2ccc(Cl)c3cccnc23)cc1	0.87	-2.77
Cc1ccc(NC(=O)CSc2nc3c(c(=O)[nH]2)CCC3)c(C)c1	1.01	0.191
CCC(O)(CCN1CCCCCC1)c1ccccc1 (centres undefined)	1.23	1.79
Cc1ccc2nc3c(c(N)c2c1)CCN3Cc1ccccc1	0.855	-4.25

Next section (two carried over from the part before).
Compound	CBX7 AlphaScr	CBX7 AlphaScr z-score
CCC(O)(CCN1CCCCCC1)c1ccccc1 (centres undefined)	1.23	1.79
Cc1ccc2nc3c(c(N)c2c1)CCN3Cc1ccccc1	0.855	-4.25
Cc1ccc(-c2nc3ncccc3o2)cc1NC(=O)c1ccccc1F	0.831	-1.84
CCOc1ccc(C2C(=O)N(C3CCCCCC3)CC(=O)N2Cc2ccc(OC)cc2)cc1OC (centres undefined)	0.83	-0.688
O=C(NCc1ccc(F)cc1)C1CCCN(S(=O)(=O)c2cccnc2)C1 (centres undefined)	0.987	-0.0126
COc1ccc(-c2nnc(NC(=O)c3ccc(S(=O)(=O)N(C)C4CCCCC4)cc3)o2)cc1	0.924	-1.72
COc1ccccc1NC(=O)Cc1nn(C)c(=O)c2ccccc12	1.2	1.96
Cc1ccc(C)c(CN2C(=O)C(C(C)C(=O)O)Sc3ccccc32)c1 (centres undefined)	0.987	-0.259
CCOc1cc2c(cc1OC)C(c1cc(Cl)ccc1O)NCC2 (centres undefined)	0.82	-0.846
COc1ccc(N2C(=O)CC(c3c[nH]c4ccccc34)C2=O)cc1 (centres undefined)	0.886	-0.263
Cc1nn2cc(-c3ccc(N)cc3)nc2s1	0.964	-0.964
O=C(NCc1cccc(Cl)c1)c1ccc2c(c1)NC(=O)c1ccccc1N2	1.07	3.02
CN(C1CCCCC1)S(=O)(=O)c1ccc(C(=O)Nc2nc(-c3ccncc3)cs2)cc1	0.961	-1.25
COc1ccc(-c2csc(N3CCN(Cc4ccc5c(c4)OCO5)CC3)n2)cc1	0.98	-0.492

Compound profiles, from the list above. Screens in order: CBX7 AlphaScr, CBX7 AlphaScr z-score
CCC(O)(CCN1CCCCCC1)c1ccccc1 (centres undefined) is listed with 1.23, 1.79
COCCn1cc(C(=O)NCc2ccccn2)c2c3ccccc3n(C)c2c1=O is listed with 1.06, 1.66
Cc1ccc(-c2nc3ncccc3o2)cc1NC(=O)c1ccccc1F is listed with 0.831, -1.84
Cc1cc(C)c2nc3s/c(=C/c4cccc(Cl)c4Cl)c(=O)n3c2c1 is listed with 0.946, -0.679

Later entries:
Compound	CBX7 AlphaScr	CBX7 AlphaScr z-score
CN(C)c1ccc(Nc2nc(-c3ccccc3Cl)nc3ccccc23)cc1	0.305*	-20.9*
Cc1nc2ncnn2c(C)c1CCC(=O)NCCCN1CCN(c2cccc(Cl)c2)CC1	1.09	1.74
COC(=O)c1c(NC(=O)COc2ccc(Cl)cc2Br)sc2c1CCCC2	1.21	2.9
Cc1ccccc1CN1C(=O)C(O)(CC(=O)c2ccccc2)c2cc(Cl)ccc21 (centres undefined)	0.637	-10.4
O=C1NCCCC1C(=O)Nc1ccccc1C(F)(F)F (centres undefined)	1.03	1.18
Cc1cc(C)nc(SCC(=O)c2ccc(O)c(O)c2)n1	0.934	-1.65
O=C(c1c[nH]c2ccc(S(=O)(=O)Nc3ccccc3F)cc2c1=O)N1CCOCC1	1.02	0.264
O=C1CN(C(=O)c2c(F)cccc2Cl)C(c2ccc(F)cc2)c2cc(F)ccc2N1 (centres undefined)	1.08	0.318
CC(=O)N1c2ccc(S(=O)(=O)N3CCN(c4cccc(Cl)c4)CC3)cc2CC1C (centres undefined)	1.02	0.686
Cc1ccc(N(C)C(=O)CN(C)S(=O)(=O)c2ccc3nc(C)sc3c2)cc1	1.26	1.51
CCc1ccc(Nc2cc(C(=O)NCCC(C)C)c3ccccc3n2)cc1	0.924	-1
Cc1ccc(-c2cc(C(=O)NCCN3CCOCC3)c3ccccc3n2)cc1C	1.02	0.497

Going on with the list:
Compound	CBX7 AlphaScr	CBX7 AlphaScr z-score
Cc1ccc(C(=O)Nc2c(C(=O)Nc3ccc(C(C)C)cc3)cnn2-c2ccccc2)cc1	1.01	0.142
Cc1ccc(NC(=O)CC2Oc3ccc(C)cc3NC2=O)c(C)c1 (centres undefined)	1.04	1.56
Cc1nn(Cc2ccc(Cl)c(Cl)c2)c(C)c1NC(=O)c1cc(-c2ccc3c(c2)OCO3)on1	0.941	-0.813
CCOCCCN1C(=O)c2ccccc2C1C(=O)NC1CCCCCC1 (centres undefined)	1.04	0.124
COCCCNC(=O)c1csc2c1CCC(C)C2 (centres undefined)	1.03	1.19
Clc1ccccc1-c1nnc2sc(-c3ccccn3)nn12	0.716	-8.37
COc1ccccc1-c1c(C)nn2c(NCc3cccnc3)cc(C)nc12	1.1	0.58
Cc1ccc(-c2cc3ncc(C#N)c(-c4cccc(C)c4)n3n2)cc1	1.07	1.6
CC1CCN(C(=O)Cc2c(C(=O)O)[nH]c3ccccc23)CC1	1.03	0.707
CCOC(=O)N1CCN(c2cc(=O)n(Cc3ccc(F)cc3)c(=O)[nH]2)CC1	0.937	-1.21
Cc1[nH]c2ccccc2c1CCNC(=O)C1CCCN1S(=O)(=O)c1ccccc1 (centres undefined)	0.948	-1.53
O=C(CCN1C(=O)COc2ccccc21)N1CCc2ccccc2C1	1.04	1.14

Molecules shown so far that contain a COOH group (three):
Compound	CBX7 AlphaScr	CBX7 AlphaScr z-score
Cc1ccc(NC(=O)Cc2c(C(=O)O)[nH]c3ccc(Cl)cc23)c(Cl)c1	1.1	0.914
Cc1ccc(C)c(CN2C(=O)C(C(C)C(=O)O)Sc3ccccc32)c1 (centres undefined)	0.987	-0.259
CC1CCN(C(=O)Cc2c(C(=O)O)[nH]c3ccccc23)CC1	1.03	0.707

More results follow:
Compound	CBX7 AlphaScr	CBX7 AlphaScr z-score
CCOC(=O)c1nnn(-c2nonc2N)c1CN1CCCc2ccccc21	0.882	-1.52
CCCCOc1cccc(C(=O)N(Cc2ccc(N(C)C)cc2)C2CCS(=O)(=O)C2)c1 (centres undefined)	0.918	-0.73
COc1ccc(Oc2nnc(-c3ccccc3)c3ccccc23)cc1	1.08	1.73
CCn1c(C(=O)N2CCCC(C(=O)NC3CCC(C)CC3)C2)cc2sccc21 (centres undefined)	0.831	-4.86
Cc1ccccc1Cn1c(COc2ccccc2)nc2ccccc21	1.03	0.89
COc1ccccc1-c1cc(C(=O)Nc2sc3c(c2C#N)CCC3)no1	1.24	1.88
CCc1cc2c(=O)c(-c3nc4ccccc4n3C)c(C)oc2c(CN(CC)CC)c1O	0.972	-0.109
COc1ccccc1NC(=O)CNC(=O)c1nn(-c2ccc(OC)c(OC)c2)c(=O)c2ccccc12	1.19	3.72
Cc1ccc(NC(=O)c2nn3c(C(F)(F)F)cc(-c4ccccc4)nc3c2Br)cc1C	1.17	1.17
O=C1CC(=O)Nc2cc(S(=O)(=O)NC3CCCCCCC3)ccc2N1	1.02	0.942
CCOC(=O)c1c(-c2ccc(C)cc2)csc1NC(=O)c1ccccc1F	1.09	3.45
CCOc1ccc(C(=O)Nc2ccc(NC(=O)c3ccccc3Br)cc2)cc1	1.35	1.42

(further entries)
Compound	CBX7 AlphaScr	CBX7 AlphaScr z-score
CCCc1cc2c(=O)c(-c3ccc4c(c3)OCO4)c(CC)oc2cc1OC(C)C	0.818	-2.01
COc1ccc(N2C(=O)c3ccccc3NC2c2ccccc2O)cc1 (centres undefined)	1.15	1.62
Cc1cc(NC(=O)CCCN2C(=O)c3cccnc3C2=O)ccc1Br	0.734	-4.47
COc1ccc(OC)c(Nc2nc3nonc3n3nnnc23)c1	0.962	-1.02
Clc1ccc(-c2nc3nc[nH]n3c2Nc2ccccc2)cc1	0.854	-1.73
CCOc1ccc2nc(N3CCC(C(=O)NCc4cccc(OC)c4)CC3)sc2c1	1.03	1.1
CCc1cccc(C)c1-n1nnnc1C(C)(CC)N1CCOCC1 (centres undefined)	1.06	0.867
O=C(CNC(=O)Cn1ccc2ccccc2c1=O)NCCC1=CCCCC1	1	0.0369
CCOC(=O)N1CCc2c(sc(NCc3cccs3)c2C(=O)Nc2cc(OC)ccc2OC)C1	0.472*	-5.23*
O=C(c1ccc(C#Cc2ccccc2)cc1)N1CCC(O)CC1	0.984	-0.824
COc1ccc(-c2csc(N3CCC(c4ccccc4)C3)n2)cc1 (centres undefined)	1.04	1.14
COc1ccc(-c2noc(-c3ccccc3F)n2)cc1	1.34	1.47
COc1c(Cl)ccc(Cl)c1C(=O)Nc1cc(C)ccc1C	1.02	0.0411
Cc1onc(-c2ccccc2Cl)c1-c1nc(-c2ccccc2)no1	0.759	-2.72
CC1CCN(C(=O)CSc2nnc(-c3ccc(F)cc3)o2)CC1	1.4	0.91

Source: PubChem BioAssay

Only part of the results is shown. The share of hits here may be higher or lower than overall.
